Source: PubChem BioAssay (National Center for Advancing Translational Sciences (NCATS))
AmpC inh no det: AmpC beta-lactamase inhibition, detergent-free assay | AmpC nitrocefin hydrolysis, absorbance 480 nm, no detergent; potencies from a single point are estimates | Potency, µM (titrated, usually from 28.7 µM), for inactives: top-dose activity change, negative = inhibition | 71,000 tested, 1.8% active; active = falling curve, for most hits resting on a single point; inconclusive = weak or doubtful change; inactive = flat or rising curve; note: % of control where 0% means no effect; about half of the hits show no inhibition at the top dose; a quarter of the inactives give rising signals
Target sequence (P00811 whole entry, looked up): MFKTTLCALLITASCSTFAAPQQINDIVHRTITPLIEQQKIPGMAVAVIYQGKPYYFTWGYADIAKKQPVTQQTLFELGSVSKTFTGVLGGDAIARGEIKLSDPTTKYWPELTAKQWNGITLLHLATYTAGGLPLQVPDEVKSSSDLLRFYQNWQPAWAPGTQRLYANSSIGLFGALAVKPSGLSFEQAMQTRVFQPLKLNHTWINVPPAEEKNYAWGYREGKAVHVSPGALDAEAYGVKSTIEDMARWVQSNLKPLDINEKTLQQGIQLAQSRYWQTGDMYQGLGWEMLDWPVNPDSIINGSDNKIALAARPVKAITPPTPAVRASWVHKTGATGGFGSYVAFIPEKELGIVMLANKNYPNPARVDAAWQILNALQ
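AmpC in 20 mM phosphate buffer pH 7.0 was preincubated 15 min at room temperature with compounds. Nitrocefin (800 uM stock) was then added and hydrolysis followed at 480 nm every 20 s for 4 min.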
* marks the source's active call; other numbers are inactive results; ? = inconclusive; & = joins results of further samples; [ ] = remark or other dose. Potency is the fitted concentration of half-maximal effect.

smiles	AmpC inh no det
COCCNC(=O)c1ccccc1NC(=O)C1COc2ccccc2O1 (centres undefined)	22.0%
CCOCC(=O)Nc1nnc(Cc2ccc(OC)c(OC)c2)s1	8.6%
CC(C)C1N=C2c3ccccc3N=C(SCc3cc(=O)n4cc(Cl)ccc4n3)N2C1=O (centres undefined)	68.6%
CCOc1ncccc1C(=O)OCC(=O)Nc1ncc(C(F)(F)F)cc1Cl	11.6%
COc1ccc(OC)c(NC(=O)c2nnn(CCc3ccccc3)c2N)c1	3.98µM*[single pt active]
CCCCNC(=O)c1cc2c(=O)n3cccc(C)c3nc2n(Cc2ccncc2)c1=N	34.4%
COc1ccc(-c2ccc(-c3noc(-c4ccc(OC)c(OC)c4)n3)c(OC)n2)cc1	39.1%
Cc1cc(N=Cc2cc(Cl)ccc2O)no1	-0.1%
COc1ncc2nc(-c3cn(C)c4ccccc34)c(=O)n(Cc3ccc(F)cc3)c2n1	19.6%
COc1ccccc1NC(=O)N(CCCN1CCOCC1)Cc1cc2cc3c(cc2[nH]c1=O)OCO3	77.6%
Cc1ccc(NC(=O)c2c(C)nc(Nc3nc4ccccc4o3)nc2C)cc1	22.9%
CCn1c(SCc2nc3ccccc3c(=O)[nH]2)nnc1-c1cccnc1	-0.3%
COc1ccc(NC(=O)N2CCC(c3ccccc3)C2)c(OC)c1 (centres undefined)	38.4%
O=C(Nc1cccc(NC(=O)c2nccc3ccccc23)c1)c1ccco1	2.6%
COc1ccc(OC)c(NC(=O)CC(NCCC2=CCCCC2)C(=O)O)c1 (centres undefined)	16.5%

In another format: results already given.
COCCNC(=O)c1ccccc1NC(=O)C1COc2ccccc2O1 (centres undefined)
  AmpC inh no det: 22.0%
COc1ccc(OC)c(NC(=O)c2nnn(CCc3ccccc3)c2N)c1
  AmpC inh no det: 3.98µM*[single pt active]

Continued:
smiles	AmpC inh no det
COc1ccccc1-n1c(N)c(C(N)=O)sc1=S	-15.6%
C#C[C@]1(O)CC[C@@H]2[C@H]3CCc4cc(OC)ccc4[C@@H]3CC[C@@]21C	1.4%[12.8 µM]
CCCC(=O)c1cc(O)c(O)cc1O	?
CN(CC1COc2ccccc2O1)c1nc(-c2cccnc2)nc2ccccc12 (centres undefined)	102.3%
CCN1CCCC1CNC(=O)c1cc2c(=O)n(C)c3ccccc3c2n1C (centres undefined)	3.98µM*[single pt active]
COc1ccc(OC)c(S(=O)(=O)Nc2ccccc2C(F)(F)F)c1	-6.4%
C=CCNC(=O)CSc1ccc(Cl)cc1	-3.4%
CN1CCN(CCCNC(=O)Cn2ncc3c4ccccc4n(C)c3c2=O)CC1	-1.0%
CCOC(=O)C1CCN(C(=O)CN(c2cc(OC)ccc2OC)S(=O)(=O)c2ccccc2)CC1	106.7%
Cc1nn(C)c(C)c1CNC(=O)c1nn2c(c1Cl)NC(c1cccs1)CC2C(F)(F)F (centres undefined)	107.6%
Nc1nnc(-c2cccnc2)s1	-1.0%
CC(=O)[C@H]1CC[C@H]2[C@@H]3C=CC4=CC(=O)CC[C@@]4(C)[C@H]3CC[C@]12C	33.5%[12.8 µM]
Cc1ccc(C(=O)Nc2ccc(S(=O)(=O)O)c3cc(S(=O)(=O)O)cc(S(=O)(=O)O)c23)cc1NC(=O)c1cccc(NC(=O)Nc2cccc(C(=O)Nc3cc(C(=O)Nc4ccc(S(=O)(=O)O)c5cc(S(=O)(=O)O)cc(S(=O)(=O)O)c45)ccc3C)c2)c1	-11.3%&-14.1%
CCCCC(=O)NC1(C(F)(F)F)C(=O)N(Cc2ccco2)C(C)=C1C(=O)OC (centres undefined)	34.4%
O=C1CCO1	-5.0%

Two of the compounds above, field by field:
C=CCNC(=O)CSc1ccc(Cl)cc1
  AmpC inh no det: -3.4%

CN1CCN(CCCNC(=O)Cn2ncc3c4ccccc4n(C)c3c2=O)CC1
  AmpC inh no det: -1.0%

The list continues:
smiles	AmpC inh no det
CCN1CCC[C@H]1CNC(=O)c1c(O)c(Cl)cc(Cl)c1OC	0.8%
N#Cc1cccc(-c2cncnc2-n2ccnc2)c1	9.9%
CC(=O)NC(O)C(=O)c1ccco1 (centres undefined)	0.2%
CCn1c(SCC(=O)c2cc(OC)ccc2OC)nnc1C(C)C	32.6%
C[C@H]1C2=C3C(CC[C@H]4C(OCc5ccc(F)cc5C(F)(F)F)OC[C@](C)([C@@H]34)N(C(=O)OC(C)(C)C)C2)C2COC(=O)OCC21 (some centres undefined)	111.0%
N#Cc1cc2c(nc1SCC(O)CS(=O)(=O)Cc1ccccc1)CCCC2 (centres undefined)	-12.4%
COc1ccc(NC(=O)Cn2nnc(-c3ccccc3F)n2)cc1Cl	-15.4%
Cc1cc(-c2ccco2)n2c(nc3ccccc32)c1C#N	-0.9%
CC(=O)c1cn(CC(=O)Nc2ccccc2)c2ccccc12	-7.0%
N#CCSc1nc(Nc2ccc3c(c2)OCO3)c2ccccc2n1	-16.5%
COc1cc([C@@H](O)CO)ccc1OS(=O)(=O)O	-6.7%
CSc1nsc(SC)c1NC(=O)OC1CCCCC1	-3.2%
CCCCCCC1/C(=N/O)CCC1C(=O)OC (centres undefined)	12.1%
CCCS(=O)(=O)C(=C1Nc2ccccc2N1)S(=O)(=O)CCC	0.6%
CN(C)S(=O)(=O)c1ccc(C(=O)Nc2ccc(F)cc2F)cc1	11.0%
O=c1cc(N2CCc3ccccc32)[nH]c(=O)n1-c1ccccc1	-15.8%
N#C/C(C(=O)N1CCOCC1)=C1/SC=C(c2ccccc2)N1c1ccccc1	-1.9%
O=C(O)c1cccnc1Oc1ccccc1	-4.9%
CC(C)OC(=O)CSc1nnc(CNc2nc(-c3ccccc3)cs2)n1C	111.9%
C=CCSc1nc(N)c2c(C)c(C)sc2n1	-19.4%
Cc1cccc(Nc2nc3c(c(=O)n(C)c(=O)n3C)n2Cc2ccccc2)c1	16.6%
CCCOn1nnnc1-c1ccccc1	-7.9%
CCOC(=O)C1=C(N)N(c2ccccc2Oc2ccccc2)C(=O)C1	26.1%
COc1ccc(NC(=O)COC(=O)c2cnccn2)cc1Cl	-19.0%
O=C(CSc1nnnn1-c1ccc2c(c1)OCO2)NCc1cccs1	7.5%
O=C1OCCC1NC1=NCCC1 (centres undefined)	-3.1%
CC(C)OCC(O)CN (centres undefined)	-11.9%
Oc1ccc(Nc2nc(N3CCCC3)c3ccccc3n2)cc1	?
CCOC(=O)c1cnn(CCOC(=O)Cc2cccs2)c1NC(=O)Cc1cccs1	8.5%
O=C(CCS(=O)(=O)c1ccc(Cl)cc1)Oc1ccc2c(c1)OCO2	13.0%
Cc1cc(C)n(-c2ccc(Cl)c(C(=O)OCC(=O)N3CCCCC3C)n2)n1 (centres undefined)	79.8%
COc1cccc(-c2nc(N(C)C)c3ccccc3n2)c1	43.8%
CCCSCCCNC(=O)CC1Oc2ccccc2NC1=O (centres undefined)	3.98µM*[single pt active]
COc1ccc(C(=O)/C=C/Nc2cc(C)on2)c(OC)c1	12.0%
CC(=O)NCCOc1nc(N(C)C)nc(N2CCOCC2)n1	4.6%
CC(C)CC1NC2(C(=O)N(C)c3ccccc32)C2C(=O)N(C(C)C)C(=O)C12 (centres undefined)	49.7%
CCCCNC(=O)CC1N=C2c3ccccc3N=C(SCC(=O)Nc3ccc(OC)cc3)N2C1=O (centres undefined)	45.7%
O=C(Cn1nnc2c(cnn2-c2ccccc2)c1=O)N1CCN(c2ccccc2F)CC1	52.5%
c1csc(CNc2nc(-c3ccoc3)nc3ccccc23)c1	-15.5%
CCNS(=O)(=O)c1ccc(NC(=O)Cn2nc(C(F)(F)F)cc2C)cc1	3.4%
O=C(Nc1ccc(Nc2ccc3c(c2)C(=O)c2ccccc2C3=O)c2c1C(=O)c1ccccc1C2=O)c1ccccc1	8.7%[5.75 µM]
COc1ccccc1CNc1ccnc(-c2ccccc2Cl)n1	11.7%
COC(=O)c1ccc(NC(=O)CSc2nnc(-c3ccncc3)n2C)cc1	0.1%
CN1CCN(S(=O)(=O)c2ccc(NC(=O)c3cccs3)cc2)CC1	6.5%
CCCC[C@@H]1C[C@H]1C(NC(=O)c1cccs1)c1ccc(Cl)cc1 (some centres undefined)	-24.6%
Cc1ccc(-n2c(Cc3cccn3C)nnc2SCC(=O)Nc2ccc3c(c2)OCO3)cc1	75.2%
CCOC(=O)c1c(N)nn(C(=O)C(C)C)c1-c1ccccc1	31.8%
CC(C)C(=O)N1CCN(c2ccc(NC(=O)c3ccc(Br)o3)cc2)CC1	30.1%
CCN(CC)CCOC(=O)C1(c2ccc([N+](=O)[O-])cc2)CCCC1	24.3%
CCOc1ccc2[nH]c(=O)c(CN(Cc3ccco3)C(=O)c3cccc(F)c3)cc2c1	23.9%
CCOP(=O)(C#CC(C)(C)C)C1(O)CCCCC1 (centres undefined)	-4.3%
CCc1nnc(NC(=O)CSc2nnc(-c3ccc(OC)cc3)n2C)s1	9.4%
COc1ccc(NC2CC(=O)N(C(C)C)C2=O)cc1 (centres undefined)	2.4%
CC1Oc2ccccc2N(CC(=O)N2CCCc3ccccc32)C1=O (centres undefined)	26.8%
CCCNC(=O)c1cccc(COCC(F)(F)C(F)F)c1	15.1%
CC1(C)CC(=O)C2=C(C1)N(CC1CCCO1)C(=O)NC2(C(F)(F)F)C(F)(F)F (centres undefined)	8.6%
CCC(C)NC(=O)c1ccc(NC(=O)C2CCCO2)cc1 (centres undefined)	-8.0%
CNC(=O)CSc1nnc(COc2ccc(Cl)cc2)n1CCOC	18.6%
CCOC(=O)c1c(C)[nH]c2cc(Br)c(O)cc12	-20.3%
COc1ccccc1-c1nnc(SCc2ccccn2)n1C	2.1%

Other entries follow.
smiles	AmpC inh no det
Cc1cccn2c(=O)c3cc(C(=O)Nc4ccc(N(C)C)cc4)n(C)c3nc12	59.1%
N/C(CC(=O)Nc1cc(C(F)(F)F)ccc1Cl)=N\O	0.4%[5.75 µM]
Oc1ccccc1C1=NCCNC(C(F)(F)C(F)F)=C1	1.4%
c1ccc(COc2cccc(CN3CCN(c4ccccn4)CC3)c2)cc1	46.1%
Cc1ccc(C)c(C(=O)NCCN(C)C)c1	1.7%
c1ccc(-c2ccccc2-c2nc(-c3ccncc3)no2)cc1	43.0%
CC1CCC(O)([C@](C)(C(=O)O)c2ccccc2)CC1 (some centres undefined)	-0.9%[5.75 µM]
CCOC(=O)c1ccc(N2C(=O)C(O)=C(C(C)=O)C2c2ccccn2)cc1 (centres undefined)	-1.6%
CC(=O)c1c(COC(=O)c2ccco2)nc2ccccc2[n+]1[O-]	24.1%
CC1=C(C(=O)OCc2ccccc2)C(c2ccccc2OC(F)F)NC(=O)N1 (centres undefined)	13.6%
CNc1nc(-c2ccccc2C(F)(F)F)nc2ccccc12	-9.5%
CCOC(=O)c1c(CN2CCC(C)CC2)oc2ccc(OC)cc12	41.9%
CCOc1ccc(-c2nnc(N)s2)cc1	-8.1%
O=C(Cn1c(=O)oc2ccccc21)NC(=O)NCc1ccco1	-9.2%
CNC(=O)c1c(I)c(C(=O)NCC(=O)Nc2c(I)c(C(=O)O)c(I)c(C(=O)NCCO)c2I)c(I)c(N(C)C(C)=O)c1I	-3.4%[12.8 µM]
Cc1cc(=O)n2[nH]c(-c3ccccc3Cl)cc2n1	-13.2%
Nc1ccc(Cl)c(NC(=O)c2cccs2)c1	-19.3%
Cc1ccc(S(=O)(=O)N2CCCC(c3nnc4n3-c3ccccc3SC4)C2)cc1 (centres undefined)	120.6%
CC(=O)Nc1ccc(S(=O)(=O)Nc2ccc(N3CCOCC3)c(F)c2)cc1	4.2%
CC(C)C(OC(=O)C1CCCO1)C(=O)NC1CCCC1 (centres undefined)	-13.1%
Cc1ccsc1C(=O)OC1CCOC1=O (centres undefined)	-19.9%
COC(=O)C(CC(C)C)NC(=O)CSc1nc(-c2ccccc2)c(C#N)c(=O)[nH]1 (centres undefined)	-12.7%
CCOc1ccccc1C(=O)NC1CC2CCCC(C1)N2Cc1nnnn1Cc1ccco1 (centres undefined)	86.2%
COc1ccccc1C(=O)N1CCN(CCc2ccccc2)CC1	33.9%
O=[N+]([O-])c1cccc2ccccc12	1.1%
C=COCCn1c(C)c(C(=O)OCC)c2cc(O)ccc21	-3.2%
COc1ccc(NC(C)=O)cc1NC(=O)CSc1nnc(-c2ccc(F)cc2)n1N	-2.4%
COc1ccc(NC(=O)N2CCCC3(CCN(C(=O)c4c(C)noc4C)CC3)C2)cc1	9.4%
COc1cc(/C=C(/C#N)c2ccc(F)cc2)ccc1OCc1ccc(C(=O)O)o1	38.6%
CCOC(=O)Cn1cc(C(=O)c2cccs2)c2ccccc21	10.6%
O=S(=O)(Nc1cccnc1)c1cccs1	-8.0%
COc1cc(C(C)=O)ccc1OCC(O)CNCC1(N2CCCCC2)CCCCC1 (centres undefined)	0.1%
O=C(COc1cccc(Oc2ccccc2)c1)Nc1ncccn1	34.1%
COc1ccc(C2c3c(-c4ccccc4O)n[nH]c3C(=O)N2CCc2ccc(OC)c(OC)c2)cc1 (centres undefined)	32.5%

An excerpt. The share of hits here may be higher or lower than overall.
